Compound activity as filed in PubChem.
YjeE inh = YjeE (TsaE) inhibition, E. coli; P0AF67; purified YjeE, fluorescence polarisation of a bound ADP probe; Potency, µM; 71,000 tested, 0.05% active; active = well fitted falling curve; inconclusive = weaker or top-dose-only fall, or a rising curve; inactive = flat or poorly fitted curve;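 note: top concentration of the series not given in the record; excess ADP was the control for the full effect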
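Purified YjeE (10 uM) with BODIPY Texas Red-labeled ADP probe (2 uM); compounds pin-transferred, 15 min at room temperature. Binding inhibition read as decreased fluorescence polarization; ADP titration as control.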
PK Bst = pyruvate kinase (B. stearothermophilus) modulation; partly purified Bacillus stearothermophilus pyruvate kinase, luminescence ATP production; ribose 5-phosphate activator present at AC10; Potency, µM; AID 361; 51,000 tested, 1.2% active; in the data active means potency below about 11 µM; inconclusive means mostly about 12 µM to 25 µM; inactive means weaker than that;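 the screen sought inhibitors and activators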;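 note: potency is the fitted concentration of half-maximal effect; scaled between full activation by ribose 5 phosphate and full inhibition by luteolin; about four in five hits inhibit and the cells do not say which; series up to 57 µM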
* = called active by the depositor; i = inactive; ? = inconclusive; . = no result given.

molecule | PK Bst | YjeE inh
C=CCn1c(=O)c2ccccc2n2c(SC(C)C(=O)Nc3nc(-c4ccccc4)cs3)nnc12 (centres undefined) | >57 | i
CCOC(=O)C1CCN(C(=O)Nc2ccc3oc(C)nc3c2)CC1 | >57 | i
Cc1cc(=O)n2[nH]c(C)c(-c3ccc(Cl)cc3)c2n1 | . | i
O=C(O)c1oc2ccccc2c1CSc1ccccn1 | >57 | i
COc1ccc(S(=O)(=O)N2CCOCC2)cc1C(=O)Nc1cc(C)on1 | >57 | i
CCc1nnc(NC(=O)C2CCC2)s1 | >57 | i
CSc1nc(N2CCOCC2)c2ccccc2n1 | >57 | i
Cc1nc(Sc2cccn2C)c(C(F)(F)F)c(=O)[nH]1 | >26 | .
CCc1nnc(NC(=O)CSc2nnnn2-c2cccc(C(=O)OC)c2)s1 | >57 | i
CCOc1ccc(NC(=O)CN(C)c2nnnn2-c2ccccc2)cc1OCC | >57 | i

Following part.
molecule | PK Bst | YjeE inh
CCOC(=O)N1CCC(NS(=O)(=O)c2cc(Br)cnc2N)CC1 | >57 | i
Cc1ccc(NC(=O)CN(C)S(=O)(=O)c2cccc3nsnc23)cc1 | >11 | i
C/C(Cl)=C/CCl | . | ?
O=C(Cc1ccccc1)N1CCC(c2nc(-c3ccc(F)cc3)no2)CC1 | >57 | i
CCOC(=O)N1CCN(C(=O)c2c(-c3ccccc3)noc2C)CC1 | . | i
COc1ccc(C)cc1S(=O)(=O)N1CCC(C)CC1 | >57 | i
CC(C)(C#N)NC(=O)c1ccco1 | >57 | i
CCOc1ccc(Cc2nc(-c3nonc3N)no2)cc1OCC | >57 | i
O=C(NC1CCCCC1)c1noc2c1CCCCC2 | . | i
Cn1c(CCNC(=O)OC(C)(C)C)n[nH]c1=S | >57 | i

Three entries out of the list, ordered by SMILES length, high to low.
molecule | PK Bst | YjeE inh
CCOc1ccc(NC(=O)CN(C)c2nnnn2-c2ccccc2)cc1OCC | >57 | i
CCOC(=O)N1CCN(C(=O)c2c(-c3ccccc3)noc2C)CC1 | . | i
O=C(O)c1oc2ccccc2c1CSc1ccccn1 | >57 | i

(listing goes on)
molecule | PK Bst | YjeE inh
CC(=O)Nc1nc(SCCCc2ccccc2)n[nH]1 | >57 | i
Cc1occc1-c1nnc(SCC(=O)Nc2ccc3c(c2)OCO3)n1CC1CCCO1 (centres undefined) | >57 | i
CCOc1cc(-c2noc(-c3cccnc3)n2)ccc1OC | >57 | i
CCCS(=O)(=O)N1CCCC(C(=O)NCCN2CCC(Cc3ccccc3)CC2)C1 (centres undefined) | >57 | i
Cc1ccc(C2NC(=O)NC3=C2CCc2ccccc23)cc1 (centres undefined) | ? | i
COc1ccccc1C(=O)N(CN1CCCC1=O)c1cccc(Cl)c1 | >57 | i
O=Cc1ccc(Cl)cc1 | . | i
COc1ccc(CN2CCN(C(=O)c3cc(OC)c(OC)c(OC)c3)CC2)cc1OC | . | i
CCOC(=O)C1=C(C)N(C)C(=O)NC1c1ccc(C)s1 (centres undefined) | >57 | i
O=c1cc(CSc2nnc(COc3ccccc3Cl)o2)nc2sccn12 | >57 | i

Next records follow.
molecule | PK Bst | YjeE inh
CCC(CC)C(=O)Nc1cc(C(=O)OC)cc(C(=O)OC)c1 | >57 | i
COc1ccc(CCNC(=O)CC2Nc3ccccc3NC2=O)cc1 (centres undefined) | >57 | i
CCC1(C)Cc2c(sc3c2c(=O)n(C)c2nnc(SCCc4ccccc4)n32)CO1 (centres undefined) | . | i
Cc1noc(/C=C/c2ccco2)c1S(=O)(=O)N1CCC(C(=O)NCc2ccco2)CC1 | >57 | i
CCOC(=O)Cn1c(=O)c2c(nc3n2CCCCN3c2ccc(C)cc2)n(C)c1=O | >57 | i
COC(=O)CCc1c(C)c(C#N)c2nc3ccccc3n2c1N1CCCC1 | >57 | i
CCCCn1c(CCNC(=O)CC)nc2ccccc21 | . | i
OCCCCNc1cccc2ccccc12 | >57 | i
Cc1cc2c(C)nc(-c3ccccc3)nc2o1 | >57 | i
O=C(O)C1CCCCC1C(=O)Nc1ccc2c(c1)OCCO2 (centres undefined) | . | i

More entries:
molecule | PK Bst | YjeE inh
CCOC(=O)C1=C(CN2CCN(c3ccc(F)cc3)CC2)NC(=O)NC1c1cccs1 (centres undefined) | >57 | i
CCOC(=O)C1=C(N)N2C(=O)C(C)SC2=C(C(=O)OC)C1c1ccccc1OC (centres undefined) | >57 | i
COc1ccc2oc(C)c(C(N)=O)c2c1 | >57 | i
CCC(=O)NC(c1ccccc1)c1nc2ccccc2[nH]1 (centres undefined) | >57 | i
COc1cc(C(=O)O)nc2ccccc12 | >57 | i
CCS(=O)(=O)N1CCCC(C(=O)NCc2ccc3c(c2)OCO3)C1 (centres undefined) | >57 | i
Cn1c(=O)oc2cc(S(=O)(=O)NCCC(=O)N3CC=C(c4ccccc4)CC3)ccc21 | >57 | i
COc1cccc(-c2nccc(NCc3cccc(C)c3)n2)c1 | . | i
Cc1ccc(OCC(=O)Nc2ccc(-c3nc4ncccc4o3)cc2)cc1 | >57 | i
Cc1oc(-c2ccc(Cl)cc2)nc1CSCC(=O)NCCCN1CCOCC1 | >11 | i

More structures follow:
molecule | PK Bst | YjeE inh
CCOC(=O)c1sc(NC(=O)c2ccc(CC)s2)nc1C | >57 | i
CCN(CC)CCn1c(-c2ccccc2)nc2c(NCc3ccccc3)nc(C)nc21 | . | i
O=C(Cn1cc2c(n1)CCCCC2)NCc1ccccc1 | . | i
O=C(O)CC(c1ccccc1)c1ccccc1 | >57 | i
CCNc1ncc2nc(-c3cn(C)c4ccccc34)c(=O)n(-c3ccc(OC)cc3)c2n1 | . | i
COc1ccc(-c2c3c(=O)n(C)c(=O)n(C)c3cn2Cc2cccnc2)cc1 | >57 | i
CC1CN(c2oc(-c3ccccc3Cl)nc2C#N)CC(C)O1 (centres undefined) | >26 | .
CC(=O)N1CCc2cc(S(=O)(=O)NC(CC(C)C)C(=O)N3CCn4c3nc3ccccc34)ccc21 (centres undefined) | >57 | i
COc1cc(C)c(S(=O)(=O)Nc2ccc(CC(=O)O)cc2)cc1C | . | i
CCC(=O)N1CCc2cc(S(=O)(=O)NCCCN(CC)Cc3ccccc3)ccc21 | >57 | i

Later entries:
molecule | PK Bst | YjeE inh
CN(C)C(=O)c1ccc(-c2cc(N(C)Cc3ccco3)ncn2)cc1 | . | i
Cc1ccc(CNC(=O)C2CCN(S(=O)(=O)c3cccs3)CC2)o1 | >57 | i
CCCCN(CC)C(=O)CN(C)S(=O)(=O)c1cccc2nsnc12 | >57 | i
CC(C)(C)NC(=O)C(c1ccccc1)N(Cc1ccco1)C(=O)c1csnn1 (centres undefined) | >57 | i
CCOc1cc2nc(-c3ccc(OC)c(OC)c3)nc(N3CCOCC3)c2cc1OC | >26 | .
N[C@@H](Cc1cnc[nH]1)C(=O)O | . | i
COC(=O)c1ccc(-c2nc(-c3ccc(Br)o3)no2)cc1 | . | i
O=C(Nc1ccc2c(c1)OCCO2)C1CCN(c2cnccn2)CC1 | >11 | i
CCc1ccc(CNc2ccc(N3CCN(C(C)=O)CC3)cc2)cc1 | >57 | i
COc1ccc(-c2cc(CCCC(=O)NCc3ccccn3)no2)cc1 | . | i

Following part.
molecule | PK Bst | YjeE inh
c1ccc(OCc2nn3c(-c4ccccn4)nnc3s2)cc1 | >26 | .
c1ccc(-c2csc3nnc(SCc4ccc5c(c4)OCCO5)n23)cc1 | >57 | i
COc1ccc(N2CCN(c3nc4c(c(=O)[nH]c(=O)n4C)n3Cc3ccccc3Cl)CC2)cc1 | . | i
CCN(CC)c1ccc2c(C)c(-c3ccc(N)cc3)c(=O)oc2c1 | i | .
O=C(c1ccco1)N1CCN(c2ncnc3sc4c(c23)CCC4)CC1 | . | i
NC[C@H](O)C1CCCCCCC1 | . | i
COc1ccc2c(=O)c3c(=O)n(Cc4ccco4)c(C(C)C)nc3oc2c1 | >57 | i
O=C(NCCc1ccc(Cl)cc1)C1CC(=O)N(C2CCCCC2)C1 (centres undefined) | . | i
Cc1cccc(-n2nnnc2SCn2nnc3ccccc3c2=O)c1 | >57 | i
O=C(O)CCCCCNS(=O)(=O)c1c(Cl)cccc1Cl | i | i

Other results
molecule | PK Bst | YjeE inh
CC(=O)n1c2ccccc2c2nc(NC(C)C)sc21 | . | i
CCCc1ccc(C(=O)CCC(=O)O)cc1 | >57 | i
CN(CCCCCNC(=O)/C=N/O)Cc1ccccc1 | >26 | .
Cc1ccc(NCc2nnc(SCC(=O)Nc3cccc(O)c3)n2CC2CCCO2)c(C)c1 (centres undefined) | >57 | i
Cc1nc(CSc2nc3[nH]ncc3c(=O)n2-c2ccccc2)cs1 | >57 | i
COc1ccc(S(=O)(=O)N2CCN(S(=O)(=O)c3ccc(C(F)(F)F)cc3)CC2)cc1C | >57 | i
CCOC(=O)/C=C1\SCC(=O)N1CC(=O)Nc1ccccc1OC(F)F | >57 | i
CC(=O)c1cccc(NC(=O)NCc2ccccn2)c1 | >57 | i
Cc1ccc(-n2nc(-c3ccc(N)cc3)cc2N)cc1 | . | i
CCCCNC(=O)CSc1nc2ccc(N3CCOCC3)cc2c(=O)n1CCc1ccccc1 | >57 | i

Additional records follow.
molecule | PK Bst | YjeE inh
Cn1c(C(=O)N2CCCC2)cc2c(=O)n(C)c3ccccc3c21 | . | i
O=C(NCCc1ccccc1)c1cccnc1N1CCCCCC1 | >57 | i
Cc1ccc(Br)cc1S(=O)(=O)N1CCN(c2ccccc2)CC1 | . | i
Cn1cccc1Cc1nnc(SCC(=O)Nc2ccc3c(c2)OCCO3)n1CCc1ccccc1 | . | i
O=C1c2ccccc2C(=O)N1CSc1nnnn1-c1ccccc1 | . | i
CC12CCCCC1c1ccccc1C(=NCC(=O)O)N2 (centres undefined) | >57 | i
NC(=O)CCCCC(=O)OCCCc1cccs1 | >57 | i
COc1ccc(NC(=O)C2CCCN(S(=O)(=O)c3cccc4cccnc34)C2)cc1 (centres undefined) | . | i
CC(=O)NCCn1c(SCc2ccccc2F)nc2ccccc2c1=O | >57 | i
O=C(O)Cn1cc2c(n1)CCCC2 | >57 | i

Complete entries, quoted from the list. Order of values: PK Bst | YjeE inh
COc1ccc(-c2cc(CCCC(=O)NCc3ccccn3)no2)cc1 is entered as . | i
COc1ccccc1C(=O)N(CN1CCCC1=O)c1cccc(Cl)c1 is entered as >57 | i

Next part.
molecule | PK Bst | YjeE inh
COC(=O)Cn1c(CN2CCC(Cc3ccccc3)CC2)nc2c1c(=O)n(C)c(=O)n2C | >57 | i
CCOC(=O)CSc1nnc(CNC(=O)c2cccs2)n1-c1cccc(C)c1 | >57 | i
CC1(C)CC(CCNC(=O)c2ccc(-n3cnnn3)cc2)CC(C)(C)N1 | >57 | i
CC(=O)NS(=O)(=O)c1ccc(NS(=O)(=O)c2ccc(F)cc2)cc1 | >57 | i
Cc1nc2c(C(=O)NCCc3ccccc3)c[nH]n2c(=O)c1Cl | >57 | i
O=S(=O)(NCc1csc(-c2ccccc2)n1)c1ccc(Cl)s1 | . | i
CCOC(=O)N1CCN(C(=O)CN(c2ccc(C)cc2)S(=O)(=O)c2c(C)noc2C)CC1 | >57 | i
O=C(c1c(F)c(F)c(F)c(F)c1F)N1CCN(c2cccc(C(F)(F)F)c2)CC1 | >57 | i
O=C(Nc1ccc(F)cc1)N1CCC(c2nc3c(nnn3Cc3cccc(Cl)c3)c(=O)[nH]2)CC1 | >57 | i
COc1ccc(N2CCN(c3oc(-c4ccccc4OC)nc3C#N)CC2)cc1 | . | i

Following part
molecule | PK Bst | YjeE inh
O=C(NCc1ccco1)C1CCC(N2C(=O)c3ccccc3C2=O)CC1 (centres undefined) | . | i
COc1ccc(NC(=O)CN2c3cccc4cccc(c34)S2(=O)=O)cc1 | 1.4* | i
CC(=O)Nc1ccc(N(C(=O)c2cnccn2)C(C(=O)NC2CCCCC2)c2ccc(O)cc2)cc1 (centres undefined) | >57 | i
Cc1ccc(Oc2ccccc2)c(NC=O)c1 | >57 | i
c1ccc2c[n+](Cc3ccnc4ccccc34)ccc2c1 | . | i
O=C(CNS(=O)(=O)c1ccc(F)cc1)N1CCN(c2ccc(F)cc2)CC1 | >57 | i
CC1(C)OC(=O)NC1=O | . | i
COc1cc(C2c3c(oc4c(C)cc(C)cc4c3=O)C(=O)N2Cc2cccnc2)ccc1O (centres undefined) | >57 | i
Cc1ccsc1C(=O)N1CC(=O)Nc2ccccc21 | >57 | i
CCC(c1nnnn1Cc1ccccc1)N1CCN(C(=O)c2ccco2)CC1 (centres undefined) | >57 | i

(next part)
molecule | PK Bst | YjeE inh
COc1ccc(CNc2cc(-c3ccccc3C)ncn2)c(OC)c1 | . | i
CCn1c(SCC(=O)Nc2cc(C)on2)nnc1-c1cccnc1 | >57 | i
CC(C)C[C@@H](CC(=O)N[C@@H](CCCN)CC(=O)N[C@@H]1CCNC[C@H]1C(=O)N[C@H](CC(=O)N[C@@H](CCC(=O)O)CC(=O)O)Cc1c[nH]c2ccccc12)NC(=O)[C@@H]1CNCC[C@H]1N | . | i
CCCOC(=O)CSC1=C(C#N)C(c2ccc3c(c2)OCO3)CC(=O)N1 (centres undefined) | >26 | .
CCCn1c(C)nc2c(N(CCOC)CCOC)nc(C)nc21 | . | i
O=C(Nc1ccc2c(c1)OCCO2)C1CCCN(S(=O)(=O)Cc2ccccc2)C1 (centres undefined) | >57 | i
COc1ccc(-n2nnc3c(=O)n(CC(=O)N4CCCCC4)cnc32)cc1 | . | i
Cc1ccsc1C(=O)OCC(=O)N1CCOCC1 | >57 | i
Cc1ccccc1Nc1nc(N)nc(COC(=O)c2cccn2C)n1 | >57 | i
O=C(NCc1ccco1)C(C(=O)c1ccccc1)n1ccccc1=O (centres undefined) | >57 | i

Some of the compounds tested. The share of hits here may be higher or lower than overall.
